Screening results: PubChem BioAssay, Broad Institute
FGF22 binding = shifts melting point of recombinant human FGF22; Q9HCT0; 340,000 compounds, 1.5% hits; calls only at 9.99 µM; recombinant FGF22 thermal shift, SYPRO orange fluorescence; percent of sucrose octasulfate shift, DMSO zero;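 active means melting point raised past a set limit in the mean and every replicate; three in four hits are not shown here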
Target sequence (Q9HCT0 whole entry, looked up): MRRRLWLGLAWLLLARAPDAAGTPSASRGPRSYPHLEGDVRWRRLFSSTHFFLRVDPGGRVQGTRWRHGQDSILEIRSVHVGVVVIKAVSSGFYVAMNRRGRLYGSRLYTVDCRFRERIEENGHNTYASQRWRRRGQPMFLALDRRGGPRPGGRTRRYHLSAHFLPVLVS
AF4-AF9 inh = MLL-AF4/AF9 protein interaction inhibition; AlphaScreen, biotin-AF4 peptide binding to FLAG-AF9; inhibition, % at 10 µM; 350,000 compounds, 0.47% hits;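 active means every replicate reaching a set inhibition limit, whatever the replicate mean, cut at about 25% in these data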;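 further: 0% = plate neutral control median and 100% = total signal loss; the record names both 10 and 1 µM as test concentration; the first replicate is given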
Target sequence (P42568 whole entry, looked up): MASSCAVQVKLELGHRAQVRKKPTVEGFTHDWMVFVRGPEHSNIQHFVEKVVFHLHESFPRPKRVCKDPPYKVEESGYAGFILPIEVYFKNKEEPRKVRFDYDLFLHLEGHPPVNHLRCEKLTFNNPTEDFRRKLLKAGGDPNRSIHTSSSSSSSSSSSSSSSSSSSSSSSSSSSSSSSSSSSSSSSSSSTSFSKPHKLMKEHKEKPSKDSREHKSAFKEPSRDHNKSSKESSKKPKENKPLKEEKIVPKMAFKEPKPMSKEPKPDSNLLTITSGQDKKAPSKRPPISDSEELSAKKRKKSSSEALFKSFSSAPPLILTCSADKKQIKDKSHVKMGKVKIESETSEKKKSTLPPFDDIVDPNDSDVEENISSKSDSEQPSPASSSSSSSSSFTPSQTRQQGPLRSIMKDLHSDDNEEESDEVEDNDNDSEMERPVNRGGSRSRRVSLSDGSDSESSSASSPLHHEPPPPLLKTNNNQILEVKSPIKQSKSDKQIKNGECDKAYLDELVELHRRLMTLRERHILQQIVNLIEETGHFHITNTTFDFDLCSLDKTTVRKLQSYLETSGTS
* = called active by the depositor; i = inactive; nt = no result given.

structure | FGF22 binding | AF4-AF9 inh
CCCCOCCCNC(=O)C[C@@H]1C[C@@]2(C(=O)OC)CC(C)(C)CC=C2N(Cc2ccccc2)C1=O | i | nt
Cc1ccc(N2CCN(C(C(=O)Nc3c(C)cccc3C)c3cccc(F)c3)CC2)cc1 (centres undefined) | i | nt
CC(C)c1cc(Cn2c3ccccc3c(=O)n2C(C)Cn2cc(-c3ccccc3)nn2)on1 (centres undefined) | i | nt
Cc1ccc(N2CCN(C(CCc3ccccc3)C(=O)Nc3c(C)cccc3C)CC2)cc1 (centres undefined) | i | nt
CCCCCCCCN1C(=O)[C@H](CC(=O)NCC23CC4CC(CC(C4)C2)C3)C[C@@]2(C(=O)OC)CC(C)(C)CC=C12 | i | nt
CCOC(=O)[C@]12CCCC=C1N(CCC1=CCCCC1)C(=O)[C@H](CC(=O)NCCCOC)C2 | i | nt
CNC(=O)C[C@H]1CC[C@H]2[C@H](COc3ccc(NC(=O)c4ccc(C(F)(F)F)cc4)cc3C(=O)N2C)O1 | i | nt
COc1ccc(C(=O)NCCNc2nc3cc(C)cc(C)c3cc2C#N)cc1 | i | nt
Cc1ccc(S(=O)(=O)C[C@@H]2OC3CCCCC3N2S(=O)(=O)c2ccc(C)cc2)cc1 (some centres undefined) | i | nt
COC(=O)[C@@]12C[C@@H](CC(=O)N3CCOCC3)C(=O)N(Cc3ccco3)C1=CCC(C)(C)C2 | i | nt
CNC[C@@H]1OCCCC[C@@H](C)Oc2ccc(NS(=O)(=O)c3c(C)noc3C)cc2C(=O)N([C@@H](C)CO)C[C@H]1C | i | nt
COc1ccc(CN(C)C[C@@H]2OCCCC[C@H](C)Oc3ccc(NC(=O)Nc4ccccc4)cc3C(=O)N([C@@H](C)CO)C[C@H]2C)cc1 | i | nt
COC(=O)[C@@]12C[C@@H](CC(=O)NCC3CCCCC3)C(=O)N(Cc3ccco3)C1=CCC(C)(C)C2 | i | nt
C[C@@H]1CCCCO[C@H](CN(C)C(=O)CCC(F)(F)F)[C@@H](C)CN([C@@H](C)CO)C(=O)c2cc(NC(=O)c3ccncc3)ccc2O1 | i | nt
O=C(C[C@H]1C[C@H]2c3cc(NS(=O)(=O)c4ccc(F)cc4)ccc3O[C@H]2[C@@H](CO)O1)NCC1CC1 | i | nt
Nc1nc2ccccc2cc1C(=O)NCc1cccs1 | i | nt
CC(C)NC(=O)C1(C)CN(S(C)(=O)=O)CC(=O)N1CCc1ccc(O)cc1 (centres undefined) | i | nt
CC(C)(C)OC(=O)Nc1ccccc1-n1nnnc1C(C(=O)c1ccc(F)cc1)N1CCN(c2ccccn2)CC1 (centres undefined) | i | nt
COc1ccc(NC(=O)c2cc(-c3sc(NC(=O)c4ccccc4)nc3C)n(-c3ccc(Br)cc3)n2)cc1 | i | nt
O=C(Nc1ccc2c(c1)OCCO2)C(C1CC1)n1c(=O)c(-c2ccco2)nc2ccccc21 (centres undefined) | i | nt
COC(=O)[C@@]12C[C@@H](CC(=O)NCC34CC5CC(CC(C5)C3)C4)C(=O)N(Cc3ccco3)C1=CCC(C)(C)C2 | i | nt
Cc1cccc(C)c1NC(=O)C1(C)CN(S(C)(=O)=O)CC(=O)N1CCCn1ccnc1 (centres undefined) | i | nt
COc1cc2c(cc1OC)/C(=C/C(C)=O)OC2 | i | nt
Nc1[nH]c(C(=O)c2ccc(Br)cc2)c(-c2ccc3c(c2)OCO3)c1C(=O)NCCc1c[nH]c2ccccc12 | i | nt
NC(=O)c1c(N)[nH]c(C(=O)c2ccccc2)c1-c1ccccc1Cl | i | nt
Nc1c(-c2ccc(C(F)(F)F)cc2)nc2ncccn12 | i | nt
C#CCn1c2ccccc2c(=O)n1CCOc1ccccc1OC | i | nt
CCOC(=O)CC1(C)Oc2cc(Cl)ccc2N1S(=O)(=O)c1ccc(C)cc1 (centres undefined) | i | nt
Cc1cc(NC(=O)OC(C)(C)C)c(-n2nnnc2C(C(=O)c2ccc3c(c2)OCO3)N2CCN(c3ccccn3)CC2)cc1C (centres undefined) | i | nt
COC(=O)C1=CN(c2ccc(Oc3ccccc3)cc2)C(N)=C(C#N)C1c1cccc(OC)c1OC (centres undefined) | i | nt
CC(C)c1cc(Cn2c3ccccc3c(=O)n2C(C)Cn2cc(-c3ccc(C(C)(C)C)cc3)nn2)on1 (centres undefined) | i | nt
O=C(NC1CCCC1)C(C1CC1)n1c(-c2ccccn2)nc2ccccc21 (centres undefined) | i | nt
CCNC(=O)C[C@H]1CC[C@H]2[C@@H](COc3ccc(NC(=O)c4ccccc4Cl)cc3C(=O)N2C)O1 | i | nt
COC(=O)[C@@]12C[C@@H](CC(=O)NCCCCc3ccccc3)C(=O)N(Cc3ccccc3)C1=CCC(C)(C)C2 | i | nt
CCCCNC(=O)C1C(c2ccccc2)=Nc2ccccc2N1C(=O)c1ccc(C)cc1 (centres undefined) | i | nt
CCOC(=O)[C@]12CCCC=C1N(CCC1=CCCCC1)C(=O)[C@H](CC(=O)NCc1ccc(OC)c(OC)c1)C2 | i | nt

Looked up by structure from above:
structure | FGF22 binding | AF4-AF9 inh
CC(C)c1cc(Cn2c3ccccc3c(=O)n2C(C)Cn2cc(-c3ccccc3)nn2)on1 (centres undefined) | i | nt
COC(=O)[C@@]12C[C@@H](CC(=O)N3CCOCC3)C(=O)N(Cc3ccco3)C1=CCC(C)(C)C2 | i | nt

(listing goes on)
structure | FGF22 binding | AF4-AF9 inh
CC(C)NC(=O)C1(C)CN(S(C)(=O)=O)CC(=O)N1CCc1ccccc1F (centres undefined) | i | nt
COC(=O)CC#C[C@H](C)[C@@H](NS(C)(=O)=O)C(C)(C)COCc1ccccc1 | i | nt
O=C(C(=O)N1CCCN(Cc2ccc(F)cc2)CC1)c1ccccc1 | i | nt
COC(=O)[C@]12CCCCC=C1N(CCc1ccc(OC)c(OC)c1)C(=O)[C@H](CC(=O)NCc1cccc(C(F)(F)F)c1)C2 | i | nt
Nc1[nH]c(C(=O)c2ccc(Br)cc2)c(-c2ccc(F)cc2)c1C(=O)NCCc1c[nH]c2ccccc12 | i | nt
COC(=O)/C=C1\OCc2cc(OC)c(OC)cc21 | i | nt
Nc1[nH]c(C(=O)c2ccccc2)c(-c2cccc(C(F)(F)F)c2)c1C(=O)c1c[nH]c2ccccc12 | i | nt
O=C(NCc1ccccc1)C(c1ccc(-c2ccccc2)cc1)N1CCN(c2ccccc2F)CC1 (centres undefined) | i | nt
COc1ccc(C(C(=O)NC2CCCC2)n2c(Cc3cc(F)cc(F)c3)nc3ccccc32)cc1 (centres undefined) | i | nt
COC(=O)[C@@]12C[C@@H](CC(=O)NCc3ccc(OC)c(OC)c3)C(=O)N(Cc3ccco3)C1=CCC(C)(C)C2 | i | nt
CC1(C(=O)NCc2ccccc2)CN(S(C)(=O)=O)CC(=O)N1CCCN1CCOCC1 (centres undefined) | i | nt
COC(=O)[C@@]12C[C@@H](CC(=O)N3CCSCC3)C(=O)N(Cc3ccc4c(c3)OCO4)C1=CCC(C)(C)C2 | i | nt
C[C@H](CO)N1C[C@H](C)[C@@H](CN(C)C(=O)Nc2cccc3ccccc23)Oc2ccc(NC(=O)CCN3CCOCC3)cc2C1=O | i | nt
COc1ccc(C(=O)C(=O)N2CCN(C(=O)OCc3ccccc3)CC2)cc1 | i | nt
Nc1[nH]c(C(=O)c2ccccc2)c(-c2ccccc2C(F)(F)F)c1C(=O)c1c[nH]c2ccccc12 | i | nt
Cc1cc2c(cc1C)-n1nnnc1C(N1CCN(c3ccccn3)CC1)C(c1ccc3c(c1)OCO3)=N2 (centres undefined) | i | nt
COC(=O)/C=C1\OCc2cc(OCc3ccccc3)ccc21 | i | nt
CCCNC(=O)C[C@H]1CC[C@H]2[C@@H](COc3ccc(NC(=O)COC)cc3C(=O)N2C)O1 | i | nt
Nc1[nH]c(C(=O)c2ccccc2)c(-c2ccc(Cl)c(F)c2)c1C(=O)c1c[nH]c2ccccc12 | i | nt
Cc1noc(C)c1NC(=O)NC[C@H]1CC[C@H]2[C@H](CN2Cc2cccc(-c3ccccn3)c2)O1 | nt | -4.2
O=C(N[C@@H]1C[C@@H]2O[C@H](CO)CC[C@@H]2O[C@@H]1CCc1ccc(C#Cc2ccccc2)cc1)c1ccccn1 | nt | -3.6
COc1ccc(NC(=O)NC[C@H]2CC[C@H]3[C@H](CN3Cc3ccccc3C(=O)O)O2)cc1 | nt | 16.3
CO[C@@H]1CN(C)C(=O)c2cc(NC(=O)C3CCCCC3)ccc2OC[C@@H](C)N(C(=O)c2ccccc2)C[C@H]1C | nt | -10.9
CN1C(=O)c2cc(NC(=O)c3ccc(C(F)(F)F)cc3)ccc2OC[C@@H]2O[C@@H](CC(=O)NC3Cc4ccccc4C3)CC[C@@H]21 | nt | -2.4
COCC#Cc1ccc(CC[C@H]2O[C@H]3CC[C@@H](CO)O[C@H]3C[C@H]2n2cc(C3CC3)nn2)cc1 | nt | -2.3
CN(C)CC(=O)N[C@@H]1C[C@@H]2O[C@@H](CO)CC[C@@H]2O[C@@H]1CCc1ccc(C2=CCCCC2)cc1 | nt | 15.7
CCCC#Cc1ccc(CC[C@H]2O[C@H]3CC[C@@H](CO)O[C@H]3C[C@@H]2n2cc(C(C)(C)O)nn2)cc1 | nt | -3.8
COc1cccc(-c2ccc(CC[C@H]3O[C@H]4CC[C@H](CO)O[C@H]4C[C@H]3NS(C)(=O)=O)cc2)c1 | nt | 0.0
O=C(NC[C@@H]1CC[C@@H]2[C@@H](CN2S(=O)(=O)c2ccccc2[N+](=O)[O-])O1)Nc1ccccc1 | nt | 2.6
CNC[C@@H]1Oc2ccc(NC(=O)CCN3CCOCC3)cc2CC(=O)N([C@H](C)CO)C[C@@H]1C | nt | -6.9
CCCC#Cc1ccc(CC[C@H]2O[C@H]3CC[C@@H](CO)O[C@H]3C[C@H]2NC(=O)c2cnccn2)cc1 | nt | -2.7
CC(=O)N[C@@H]1C[C@@H]2O[C@H](CO)CC[C@@H]2O[C@@H]1CCc1ccc(C#CC2(O)CCCC2)cc1 | nt | -2.9
O=C(NC[C@H]1CC[C@@H]2[C@@H](CN2S(=O)(=O)c2ccccc2[N+](=O)[O-])O1)Nc1ccccc1 | nt | -0.1
COC(=O)C(CC#Cc1ccc2c(c1)[C@]1(C(=O)N2)[C@H](c2ccccc2OCCO)N2[C@H](c3ccccc3)[C@H](c3ccccc3)OC(=O)[C@H]2[C@@H]1C(=O)N1CCCCCCC1)C(=O)OC | nt | -1.8
CCCC#Cc1ccc(CC[C@H]2O[C@H]3CC[C@H](CO)O[C@H]3C[C@@H]2NC(=O)CN2CCOCC2)cc1 | nt | 6.4
O=C(CC1CC1)N[C@@H]1C[C@@H]2O[C@H](CO)CC[C@@H]2O[C@@H]1CCc1ccc(C#Cc2ccccc2)cc1 | nt | -5.0

Compounds shown so far that contain a Cl atom, in the order listed:
structure | FGF22 binding | AF4-AF9 inh
NC(=O)c1c(N)[nH]c(C(=O)c2ccccc2)c1-c1ccccc1Cl | i | nt
CCOC(=O)CC1(C)Oc2cc(Cl)ccc2N1S(=O)(=O)c1ccc(C)cc1 (centres undefined) | i | nt
CCNC(=O)C[C@H]1CC[C@H]2[C@@H](COc3ccc(NC(=O)c4ccccc4Cl)cc3C(=O)N2C)O1 | i | nt
Nc1[nH]c(C(=O)c2ccccc2)c(-c2ccc(Cl)c(F)c2)c1C(=O)c1c[nH]c2ccccc12 | i | nt

New compounds follow
structure | FGF22 binding | AF4-AF9 inh
Cc1noc(C)c1NC(=O)NC[C@@H]1CC[C@@H]2[C@@H](CN2Cc2cccc(-c3ccccn3)c2)O1 | nt | -6.0
CCCc1cn([C@@H]2C[C@@H]3O[C@H](CO)CC[C@@H]3O[C@@H]2CCc2ccc(-c3cccc(OC)c3)cc2)nn1 | nt | -1.7
O=C(NC[C@H]1CC[C@@H]2[C@@H](CN2S(=O)(=O)c2ccccc2)O1)NC1CCCCC1 | nt | -4.3
Cc1noc(C)c1NC(=O)N(C)C[C@@H]1OCCCC[C@@H](C)Oc2ccc(NC(=O)Nc3cccc4ccccc34)cc2C(=O)N([C@@H](C)CO)C[C@@H]1C | nt | -1.3
O=C(N[C@H]1C[C@@H]2O[C@H](CO)CC[C@@H]2O[C@@H]1CCc1ccc(C#CC2CC2)cc1)c1cccc(F)c1 | nt | 0.6
COCC(=O)Nc1ccc2c(c1)C(=O)N(C)[C@H]1CC[C@H](CC(=O)Nc3cccc(C)c3)O[C@@H]1CO2 | nt | -0.8

A portion of the library. The share of hits here may be higher or lower than overall.
